# Ecoli rRNA inh: inhibitors of bacterial rRNA selective over humanized ribosomes; E. coli WT GFP vs humanized-ribosome RFP mutants, fluorescence, 24 h; stronger effect = lower value; DMSO median 0, no signal -100; GFP signal change (wild-type ribosome), % (concentration not given with the values); 1.6% of 350,000 active;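 active = significant combined selectivity score with lowered wild-type GFP, culture density cut under 30%, mutant RFP and density less affected; inactive = any of these conditions unmet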; also: one replicate is shown; some compounds called inactive have numbers as strong as hits
# T cruzi repl: T. cruzi replication inhibition; T. cruzi beta-gal in NIH3T3, luminescence, 90 h; inhibition, % (no concentration beside the values); 1.4% of 300,000 active; AID 1885;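 active = mean inhibition across valid replicates above about 55%, limit read from the data; inconclusive = mean below that limit but half or more replicates reach it; inactive = mean below it, under half of replicates reach it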;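 also: signal also drops with host cell toxicity which is not excluded here; 0% = plate median of DMSO wells and 100% = zero luminescence signal; higher percent means less beta-gal luminescence so fewer parasites; stock transfer was 50 nL into about 50 µL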
# AF4-AF9 inh: MLL-AF4/AF9 protein interaction inhibition. AlphaScreen, biotin-AF4 peptide binding to FLAG-AF9. inhibition, % at 10 µM. 0.47% of 350,000 active;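 active = every replicate reaching a set inhibition limit, whatever the replicate mean, cut at about 25% in these data; inconclusive = mean inhibition reaches that limit but some replicates miss it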;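 also: 0% = plate neutral control median and 100% = total signal loss; the record names both 10 and 1 µM as test concentration; the first replicate is given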
# Target sequence (P42568 whole entry, looked up): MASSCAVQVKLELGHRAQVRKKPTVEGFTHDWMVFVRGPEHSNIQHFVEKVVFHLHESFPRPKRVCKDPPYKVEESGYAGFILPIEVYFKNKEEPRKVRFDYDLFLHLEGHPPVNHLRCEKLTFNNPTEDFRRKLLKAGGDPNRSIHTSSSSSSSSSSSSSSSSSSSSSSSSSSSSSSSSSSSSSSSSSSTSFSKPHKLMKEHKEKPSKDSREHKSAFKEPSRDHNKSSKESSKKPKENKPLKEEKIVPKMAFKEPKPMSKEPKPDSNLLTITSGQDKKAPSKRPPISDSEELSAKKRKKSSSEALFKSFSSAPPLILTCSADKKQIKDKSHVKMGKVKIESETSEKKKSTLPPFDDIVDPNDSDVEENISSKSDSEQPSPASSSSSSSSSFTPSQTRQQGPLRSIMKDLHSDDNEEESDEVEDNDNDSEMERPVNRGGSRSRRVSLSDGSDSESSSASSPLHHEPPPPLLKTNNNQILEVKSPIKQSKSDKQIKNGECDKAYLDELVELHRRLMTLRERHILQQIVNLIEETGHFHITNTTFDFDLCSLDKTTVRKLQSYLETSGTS
# Calb FLC: C. albicans growth modulation with fluconazole. C. albicans CaCi-2 (fluconazole-resistant clinical isolate) + fluconazole, Alamar Blue growth, 48 h. growth inhibition, % (no concentration beside the values). 0.57% of 300,000 active. AID 1979;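 active = most replicates above 75%; inconclusive = exactly half above 75%; inactive = most below 75%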;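 also: all wells also contain fluconazole at 8 µg/ml as a sub-toxic cotreatment; 0% = median of DMSO wells and 100% = median of geldanamycin control wells; wells of about 8 µL received 7.5 nL stock; the first replicate is given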
# RanGTP-Impb inh: disruptors of Ran-importin-beta complex formation – biochemical, FRET, CFP-Ran, YFP-importin-beta, homogeneous, primary screen. cell-free CFP-Ran/YFP-importin-beta FRET ratio. inhibition, % (test concentration not listed). 1.1% of 300,000 active. AID 2216;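 active = most replicates above 15%; inconclusive = exactly half above 15%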;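 also: 0% = DMSO wells and 100% = Ran loaded with GDP instead of GTP; wells of about 40 µL received 100 nL stock; the first replicate is given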
# FGF22 binding: binders of recombinant human FGF22 by thermal shift. Q9HCT0. SYPRO orange fluorescence; percent of sucrose octasulfate shift, DMSO zero. calls only at 9.99 µM. 1.5% of 340,000 active;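 active = melting point raised past a set limit in the mean and every replicate; inconclusive = no clear call; three in four hits are not shown here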
# Target sequence (Q9HCT0 whole entry, looked up): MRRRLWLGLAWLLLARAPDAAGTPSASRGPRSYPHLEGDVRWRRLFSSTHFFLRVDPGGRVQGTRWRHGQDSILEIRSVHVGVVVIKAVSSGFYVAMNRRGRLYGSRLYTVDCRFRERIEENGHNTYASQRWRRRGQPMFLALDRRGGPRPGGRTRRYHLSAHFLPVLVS
# Beta cell apopt: beta cell apoptosis inhibition. 0.8% of 300,000 active. protection from apoptosis, % (test concentration not listed). INS-1E cytokine-induced death, ATP luminescence, 48 h; percent of positive-control rescue, neutral wells zero;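 active = all replicates at 75% or more, or half of them and the mean; inconclusive = half reach 75% but not the mean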;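 also: 0% = cytokine-treated negative control wells and 100% = positive control rescue; higher means more ATP so stronger rescue from cytokine killing; wells of about 40 µL received 100 nL stock; the first replicate is given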
# ALR inh: human ALR oxidase inhibition via reduced H2O2 | purified ALR, DTT oxidation, H2O2 HRP-luminol luminescence | inhibition, % (concentration not given with the values) | 3.8% of 290,000 active | AID 485317;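 active = mean and each replicate at 75% or more; inconclusive = only one of the two met; inactive = neither met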;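 also: stock transfer was 7.5 nL into about 7.5 µL; 0% = neutral wells and 100% = wells with inactivated enzyme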
# Target sequence (P55789 whole entry, looked up): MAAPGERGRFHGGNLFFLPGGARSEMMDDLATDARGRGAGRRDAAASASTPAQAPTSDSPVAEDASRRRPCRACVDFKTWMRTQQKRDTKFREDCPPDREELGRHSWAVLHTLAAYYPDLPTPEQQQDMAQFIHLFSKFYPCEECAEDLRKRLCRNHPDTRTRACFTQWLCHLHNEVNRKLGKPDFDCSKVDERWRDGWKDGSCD
# Ecoli rRNA inh OD600: recorded beside Ecoli rRNA inh, whose call it bears; OD600 change, %; measured here: OD600 growth;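 optical density of the mix in the first replicate; 0 = DMSO median and -100 = no signal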
# Ecoli rRNA inh RFP: further read-out of Ecoli rRNA inh, marked with its call; RFP signal change, %; measured here: RFP humanized mutant strains;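 first replicate; 0 = DMSO median and -100 = no signal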
# Starred values were filed as active, the others as inactive; i = inactive; u = inconclusive; x = no result given. These rows are one share of the data; rates above refer to the full screens.
SMILES,Ecoli rRNA inh,Ecoli rRNA inh OD600,Ecoli rRNA inh RFP,T cruzi repl,AF4-AF9 inh,Calb FLC,RanGTP-Impb inh,FGF22 binding,Beta cell apopt,ALR inh
O=c1[nH]c(=S)c2c(n1-c1ccccc1)CCC2,3,-5,-2.8,-4,0.7,7,2.4,i,-8,-2
CCn1cc(C(=O)NCCc2ccccc2C)c(=O)c2ccc(C)nc21,3,6,-2.8,-8,-3.3,8,-2.4,i,-6,3
O=C(O[C@H]1[C@H](Cc2ccccc2)NS(=O)(=O)[C@H]2C[C@@H]3C=C[C@]12O3)c1ccc([N+](=O)[O-])cc1,0,1,-4.9,x,-1.9,x,x,i,-3,-5
O=C(Nc1ccc(CN2CCCCC2)cc1)c1sc2ccccc2c1Cl,3,-5,11,u,0.0,-2,-2.6,i,13,-8
O=C1CC(N(CCc2ccccc2)C(=S)Nc2cc(Cl)ccc2Cl)C(=O)N1c1c(Cl)cccc1Cl (stereo not drawn),x,x,x,47,x,1,-0.7,x,30,-4
Cc1cc(C)n2nc(-c3ccccc3)cc2n1,11,15,1.0,-34,-4.2,-2,-2.2,i,x,-7
O=C(NCCCn1ccnc1)c1ccc(NS(=O)(=O)c2ccc(Cl)c(Cl)c2)cc1,0,0,1.6,2,3.1,-1,0.1,i,58,3
COc1ccc(OCC(=O)N2CCN(C(=O)c3cccc4ccccc34)CC2)cc1,x,x,x,10,x,7,-0.5,x,-6,-18
COc1ccc(/C=C/C(=O)OCC(=O)c2ccccc2F)cc1,-9,-19,0.6,x,0.5,x,x,i,-2,-10
COc1ccc(C(=O)N2CCN(C(=O)c3ccco3)CC2)cc1OC,11,18,-3.8,-4,x,-7,1.9,x,-7,-4
CCCOCCc1nnc(N)s1,12,3,-1.2,-8,1.0,-4,-2.8,i,-1,-7
COc1ccc(C(=O)NCc2ccccn2)cc1[N+](=O)[O-],2,-5,-2.1,-1,-2.6,-5,5.3,i,-4,-4
Cc1ccc(NC2CCCN(C(=O)c3snnc3C)C2)cc1C (stereo not drawn),8,7,-4.2,19,-2.7,1,1.7,i,8,99*
Cc1onc(-c2c(F)cccc2Cl)c1C(=O)NCCN1CCNC1=O,1,-5,-2.9,-22,-4.2,2,-2.5,i,x,0
CC(Oc1ccc(F)cc1)C(=O)Nc1cc(S(=O)(=O)N2CCOCC2)ccc1N1CCN(C)CC1 (stereo not drawn),-2,-3,0.9,7,-4.7,-1,x,i,-2,25
Cc1cc(C)n(CCNC(=O)c2cc(COc3ccc(F)cc3Cl)on2)n1,-26,-22,-2.6,6,-0.9,31,-4.3,i,2,-17
Cn1cc(C(=O)NC2C3CC4CC(C3)CC2C4)cn1 (stereo not drawn),x,x,x,-2,x,-8,1.8,x,-7,1
O=C(Nc1ccccc1N1CCN(C(=O)c2ccccc2)CC1)c1ccccc1Cl,-3,-7,9.6,3,9.4,10,-0.5,i,5,-6
O=C(COC(=O)c1ccncc1)Nc1ccccc1,-6,10,-2.1,-12,1.2,33,4.4,i,-2,13
O=C(CSC(=S)N1CCCCC1)c1ccccc1,-36,-51,-11,5,0.3,-3,-1.4,i,1,15
COc1ccccc1N1C(=O)c2ccc(C(=O)Nc3nccs3)cc2C1=O,13,12,-0.6,3,-3.1,-1,5.5,i,-1,x
CCNC(=O)C(=O)Nc1ccc([N+](=O)[O-])cc1,7,14,0.5,-8,-1.4,-22,-3.0,i,-2,-3
CCC(C)Oc1ccc(/C=C/c2[nH]c(=O)[nH]c(=O)c2[N+](=O)[O-])cc1OC (stereo not drawn),11,7,2.5,-3,-1.1,5,-5.0,i,x,19
CCN(CC)CCCNC(=O)/C(=C\c1cccn1C)NC(=O)c1cccs1,x,x,x,-3,x,1,7.5,x,-4,17
CCn1c(SCC(=O)N2c3ccccc3CCc3ccccc32)nc2c1c(=O)n(C)c(=O)n2C,x,x,x,45,x,u,-3.7,x,4,4
CCOC(=O)C1CCN(C/C=C/c2ccccc2)CC1,2,9,-1.9,-5,-1.4,0,-1.3,i,-1,-4
CCCCOc1ccc(-c2nc(=S)[nH][nH]2)cc1,x,x,x,-11,x,-3,0.9,x,5,99*
O=C(CSCC(=O)Nc1cccc([N+](=O)[O-])c1)Nc1ccccc1,x,x,x,-23,x,-7,-5.3,x,1,-3
COc1ccc(NC(=O)COC(=O)c2ccc3ccccc3n2)cc1OC,7,5,0.0,x,-1.5,x,x,i,-1,-3
CC12CCC(=O)N1C(C(=O)OCC(=O)Nc1cccc(Br)c1)CS2 (stereo not drawn),-7,-9,-1.3,-1,-0.3,1,-2.6,i,2,-4
CCOc1cc(S(=O)(=O)N2CCOCC2)ccc1F,x,x,x,-3,x,-6,-1.6,x,x,5
COc1ccc(-c2cc(C(=O)N/N=C/c3cccnc3)c3cc(C)cc(C)c3n2)cc1,5,10,0.2,26,-3.1,13,-0.5,i,11,-13
CC(=O)Nc1ccc(C(=O)NCCCSc2ccccc2)cc1,-4,-3,0.1,-3,-1.2,8,-3.5,i,1,-5
CCOc1ccccc1NC(=O)CCCc1ccc(OC)c(C)c1,-23,-26,0.9,1,-0.1,-26,3.9,i,-2,-19
COc1ccc(S(=O)(=O)NCC(=O)NCCc2ccc(OC)c(OC)c2)cc1,0,-3,2.1,0,-0.6,-2,3.5,i,-16,6
CCN(CC(=O)Nc1cc(Cl)ccc1C)C(=O)CN1C(=O)NC(CC)(c2ccccc2)C1=O (stereo not drawn),-4,-4,3.8,4,5.5,1,-2.3,i,-6,x
CN(C)C(=O)NC1c2ccccc2-c2ccccc21,-3,7,-9.5,3,-1.5,-5,-0.6,i,-3,-15
COc1ccc(NS(=O)(=O)c2cccc(C(=O)NNC(=O)CN3C(=O)NC(C)(C)C3=O)c2)cc1,3,0,1.4,-11,4.9,8,-2.7,i,-3,-5
Cc1ccc(CN(CC(=O)NCC2CCCO2)S(=O)(=O)c2ccc(C)cc2)cc1 (stereo not drawn),-2,-13,-0.6,6,1.6,-2,-0.7,i,3,x
COc1ccc(S(=O)(=O)NCc2cccnc2)cc1C(=O)N1CCCCC1,8,7,-3.2,8,0.3,7,-0.9,i,-6,x
COC(=O)c1scc(C)c1NC(=O)CC1NCCNC1=O (stereo not drawn),7,8,1.2,-23,-15,5,0.5,i,-5,x
CC(=O)/C(=N\Nc1ccc(C)cc1)Sc1nncn1C,x,x,x,-5,x,-5,3.5,x,1,45
Fc1ccc(Nc2nc(N3CCOCC3)nc(N3CCOCC3)n2)cc1,5,2,-4.6,10,-3.2,9,-5.0,i,-6,-5
Cc1cnc(NC(=O)c2cccc(S(=O)(=O)N3CC(C)OC(C)C3)c2)s1 (stereo not drawn),-11,-6,-0.8,-9,5.8,-2,2.5,i,-9,-1
COC(=O)C1=C(C)NC(=O)/C1=C\N(C)C,20,24,5.0,11,-4.5,-7,3.2,i,-5,0
CC(=O)N1c2ccccc2C(C)CC12CCCCC2 (stereo not drawn),x,x,x,4,x,1,-3.8,x,-3,-15
Cc1cccc(NC(=O)c2ccc(COc3ccc4ccccc4c3)o2)n1,-13,-19,0.9,16,-5.7,-24,-2.8,i,-6,-33
Cc1ccc(C)c(OCC(=O)Nc2ccc(N3CCOCC3)cc2N2CCOCC2)c1,-12,-9,0.6,x,13,x,x,i,1,-9
CN(CC(=O)Nc1ccccc1Cl)C(=O)COC(=O)c1cc(S(=O)(=O)N(C)C)ccc1N1CCCC1,-5,-9,-0.6,9,-8.9,6,2.6,i,x,x
Cc1ccc2c(c1)cc(CN(C(=O)N1CCOCC1)C1CCCC1)c1nnnn12,-21,-26,2.3,6,-0.9,-5,-1.5,x,3,-1
COc1ccc(C(=O)NC(=S)Nc2cc(C)ccn2)cc1[N+](=O)[O-],5,-1,-10,2,5.9,-4,0.5,i,0,-1
Cc1cc(=O)c2n(Cc3ccccc3Cl)nc[n+]2[nH]1,x,x,x,4,x,-11,-6.0,x,-5,-18
O=[N+]([O-])c1cc(N=Nc2ccc3ccccc3c2)ccc1O,2,0,-5.6,-7,6.1,9,-7.6,i,50,-4
CCC(C(=O)NCc1cccnc1)n1nc(C)n2c(cc3occc32)c1=O (stereo not drawn),15,22,3.1,1,0.1,-2,-3.0,i,3,2
O=C(Nc1ccc(Cl)cc1)Nc1cccc2nsnc12,-57,-81,-19,26,-7.5,-3,-28,i,11,8
Cc1ccccc1SCc1noc(C(=O)NCC2CCCO2)c1C(=O)O (stereo not drawn),-5,-8,-2.4,4,-24,-8,u,i,-4,5
CCCCCCCn1ccc(O)c(CC(=O)OC)c1=O,7,3,0.1,-15,0.4,11,-2.3,i,-13,3
O=S(=O)(Nc1nc2ccccc2nc1N1CCN(c2ccccc2)CC1)c1ccc(F)cc1,-12,-7,4.4,7,2.0,26,6.9,i,11,12
COC(=O)c1ccc(C(=O)OC)c(N)c1,x,x,x,0,x,-1,x,x,5,-5

# 9 compounds from above, sorted by SMILES length, highest first:
SMILES,Ecoli rRNA inh,Ecoli rRNA inh OD600,Ecoli rRNA inh RFP,T cruzi repl,AF4-AF9 inh,Calb FLC,RanGTP-Impb inh,FGF22 binding,Beta cell apopt,ALR inh
O=C1CC(N(CCc2ccccc2)C(=S)Nc2cc(Cl)ccc2Cl)C(=O)N1c1c(Cl)cccc1Cl (stereo not drawn),x,x,x,47,x,1,-0.7,x,30,-4
Cc1ccc2c(c1)cc(CN(C(=O)N1CCOCC1)C1CCCC1)c1nnnn12,-21,-26,2.3,6,-0.9,-5,-1.5,x,3,-1
O=C(Nc1ccccc1N1CCN(C(=O)c2ccccc2)CC1)c1ccccc1Cl,-3,-7,9.6,3,9.4,10,-0.5,i,5,-6
Cc1cc(C)n(CCNC(=O)c2cc(COc3ccc(F)cc3Cl)on2)n1,-26,-22,-2.6,6,-0.9,31,-4.3,i,2,-17
Cc1cccc(NC(=O)c2ccc(COc3ccc4ccccc4c3)o2)n1,-13,-19,0.9,16,-5.7,-24,-2.8,i,-6,-33
Fc1ccc(Nc2nc(N3CCOCC3)nc(N3CCOCC3)n2)cc1,5,2,-4.6,10,-3.2,9,-5.0,i,-6,-5
Cn1cc(C(=O)NC2C3CC4CC(C3)CC2C4)cn1 (stereo not drawn),x,x,x,-2,x,-8,1.8,x,-7,1
CCOC(=O)C1CCN(C/C=C/c2ccccc2)CC1,2,9,-1.9,-5,-1.4,0,-1.3,i,-1,-4
CN(C)C(=O)NC1c2ccccc2-c2ccccc21,-3,7,-9.5,3,-1.5,-5,-0.6,i,-3,-15

# Screens from PubChem BioAssay.
